High-throughput results from PubChem BioAssay.
LASV entry inh – Lassa virus entry inhibition; 300,000 compounds, 1.2% hits; Potency, µM (top dose mostly 37.9 µM), without a hit: at the top dose activity change, negative = inhibition, hits mostly inhibitors; Lassa virus pseudotype entry inhibition, cell reporter; control for the full effect not named in the record; active means well fitted inhibition curve with a large enough effect; inconclusive means small, poorly fitted or top-dose-only effect, or effect the other way; inactive means flat fitted curve, though single readings scatter; tested in HEK293 cells; further: on the % scale 0 is the no-effect control and ±100 the full control effect; nearly all actives have a fitted effect of over 50% in size; luciferase read-out
RE007 growth inh – less growth of the S. pombe RE007 Vpr strain; S. pombe RE007 Vpr strain, BacTiter-Glo ATP luminescence, 24 h; control for the full effect not named in the record; Potency, µM (top dose mostly 92.2 µM), without a hit: at the highest dose activity change, negative = less growth; 360,000 compounds, 0.21% hits; AID 651644; active = well fitted falling curve with a large enough effect; inconclusive = small, poorly fitted or top-dose-only effect; inactive = no such curve, though single readings can be large or run the other way;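 further: on the % scale 0 is the no-effect control and ±100 the full control effect; nearly all actives have a fitted effect of over 50% in size; the assay follows cell death caused by Vpr and the record does not say whether a fall means rescue or toxicity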
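Fission yeast strain RE007, carrying one chromosomally integrated HIV-1 vpr copy, was seeded at OD 0.01 in PMG+AL medium with 23 nL pinned compound. After 24 h at 30 °C and 99% humidity, viability was read by BacTiter-Glo luminescence.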
Cruzain inh noDet – inhibitors of Trypanosoma cruzi cruzain without detergent | 200,000 compounds, 2.3% hits | AID 1476 | purified cruzain, Z-FR-AMC fluorescence, no detergent | Potency, µM, inactives show max response, negative = inhibition, most hits filed as inhibitors | P25779;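 further: plate controls were enzyme without inhibitor for no effect and buffer without enzyme for full effect; nearly all actives have a fitted effect of over 40% in size; top concentration of the series not given in the record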
Target sequence (P25779 123-467 limits assumed): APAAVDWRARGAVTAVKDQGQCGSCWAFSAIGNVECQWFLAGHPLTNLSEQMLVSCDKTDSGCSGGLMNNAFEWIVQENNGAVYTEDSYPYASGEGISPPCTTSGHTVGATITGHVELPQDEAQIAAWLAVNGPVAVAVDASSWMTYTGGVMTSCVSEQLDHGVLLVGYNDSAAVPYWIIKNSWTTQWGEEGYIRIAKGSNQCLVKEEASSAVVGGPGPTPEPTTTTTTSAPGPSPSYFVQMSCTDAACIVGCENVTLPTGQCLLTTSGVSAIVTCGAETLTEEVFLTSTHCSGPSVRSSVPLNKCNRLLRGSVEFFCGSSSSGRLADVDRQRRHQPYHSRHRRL
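Purified cruzain at 1.5 nM, pre-incubated 15 min with compound at room temperature in 100 mM sodium acetate pH 5.5, 5 mM DTT, 0.00005% Triton X-100. Reaction started with 2 uM Z-FR-AMC; AMC fluorescence increase over 60 s gives rate.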
SARS PLP yeast – blocks SARS-CoV papain-like protease in a yeast assay | S. cerevisiae expressing SARS-CoV PLpro, growth rescue; control for the full effect not named in the record | Potency, µM (series often up to 32.9 µM), inactives show at the highest dose activity, positive = growth rescue | 330,000 compounds, 0.19% hits; active means well fitted rising curve with a large enough effect; inconclusive means small, poorly fitted or top-dose-only effect; inactive means no such curve, though single readings can be large or run the other way; further: 0% is about no effect; nearly all actives have a fitted effect of over 55% in size; growth read by luminescence after 48 h
NS1 inh – influenza NS1 inhibition | S. cerevisiae slowed by influenza A NS1, growth recovery by OD600 | Potency, µM (titrated, usually from 46.1 µM), for the others: top-dose activity, positive = more growth | 270,000 compounds, 0.4% hits | AID 2326; active means well fitted rising curve with a large enough effect; inconclusive means small, poorly fitted or top-dose-only effect; inactive means no such curve, though single readings can be large or run the other way; further: nearly all actives have a fitted effect of over 50% in size
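Growth recovery, yeast-based: influenza A NS1 expressed in S. cerevisiae causes slow growth, and suppressors are detected by OD600. The parent strain without NS1 is used as positive control.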
Cruzain Triton – blocks cruzain activity in presence of Triton detergent; Potency, µM, without a hit: max response, negative = inhibition, actives largely listed as inhibitors; 200,000 compounds, 0.43% hits; purified cruzain, Z-FR-AMC fluorescence, 0.01% Triton; P25779;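 further: plate controls were neutral wells for no effect and buffer without enzyme for full effect; nearly all actives have a fitted effect of over 40% in size; top concentration of the series not given in the record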
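Cysteine protease activity tested under reducing, mildly acidic conditions (100 mM sodium acetate pH 5.5, 5 mM DTT) plus 0.01% Triton X-100. Cruzain 1.5 nM; substrate Z-FR-AMC 2 uM; 15 min compound preincubation at room temperature.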
2A StopGo – lowers the luciferase signal of an FMDV 2A StopGo reporter. human cells with a luciferase reporter of 2A StopGo recoding; control for the full effect not named in the record. 410,000 compounds, 1.2% hits. AID 1159524. Potency, µM (top dose mostly 57.9 µM), for the others: top-dose signal change, negative = less light; active = well fitted falling curve with a large enough effect; inconclusive = small, poorly fitted or top-dose-only effect; inactive = no such curve, though single readings can be large or run the other way; tested in HEK293T cells; further: on the % scale 0 is the no-effect control and ±100 the full control effect; nearly all actives have a fitted effect of over 45% in size; luciferase light after 4 h
MARV entry inh – inhibitors of Marburg virus binding or cell entry | 300,000 compounds, 1.8% hits | Potency, µM (highest dose often 37.8 µM), for inactives: top-dose activity change, negative = inhibition, actives largely listed as inhibitors | Marburg virus pseudotyped entry inhibition, cell reporter; control for the full effect not named in the record; about a third of the inactives were read at about 46 µM; active = well fitted inhibition curve with a large enough effect; inconclusive = small, poorly fitted or top-dose-only effect, or effect the other way; inactive = flat fitted curve, though single readings scatter; tested in HEK293 cells; about a fifth of its hits are not listed in these tables; further: on the % scale 0 is the no-effect control and ±100 the full control effect; luciferase read-out
* hit, by the source's call; u = inconclusive; x = no result given; & = joins results of further samples; [ ] = another dose, or the depositor's remark. Unless noted, the call rests on the fitted dose curve; in most records, active means well fitted curve in the direction sought with a large enough effect; inconclusive means small, poorly fitted or top-dose-only effect, or another doubt; inactive means no such curve, though single readings can be large; an effect the other way counts as inactive or inconclusive. Potency means the concentration at half of the fitted maximal effect.

SMILES	LASV entry inh	RE007 growth inh	Cruzain inh noDet	SARS PLP yeast	NS1 inh	Cruzain Triton	2A StopGo	MARV entry inh
COc1ccc(OC)c(-c2csc(NC(=O)c3ccc(OCC4CCCO4)cc3)n2)c1 (stereo not drawn)	x	-6%	-24%	-24%	7%	-5.0%	-12%	1%
Cc1ccc2nc(-c3ccc(NC(=S)NC(=O)CC(C)C)cc3)sc2c1	u	-10%	18%	-18%	3%	-0.6%	56%[activator]	u
Cn1c2c(c(=O)n(C)c1=O)C(c1ccccc1OC(F)F)C1=C(CCCC1=O)N2 (stereo not drawn)	15%	4%	0%	1%	-10%	-2.3%	15%	-3%
O=C(Nc1ccccc1)c1ccc2c(c1)OCCCO2	3.2µM*	-26%	x	-13%	-90%	x	-42%	u
O=C1CC(c2ccc(F)cc2)Cc2nc(N3CCOCC3)ncc21 (stereo not drawn)	u	-12%	-9%	7%	-20%	-4.8%	0%	-17%
O=C(CCc1nc2ccccc2[nH]c1=O)OCC(=O)c1ccc(Cl)cc1	0%	-5%	-15%	24%	9%	2.2%	x	u
CC(=O)Nc1ccccc1Nc1cc(C#N)c(C#N)cc1[N+](=O)[O-]	-5%	-2%	-1%	3%	-5%	-1.7%	-20%	-1%
COc1ccc(C(=O)CSc2nnnn2C)c(OC)c1	18%	3%	x	1%	1%	x	35%[activator]	1%[46.1 µM]
COc1cccc(C(=O)NNC(=O)C2CCCO2)c1 (stereo not drawn)	13%	1%	x	1%	-6%	x	6%	5%
COC(=O)c1cc(/C=C/c2ccccc2)[nH]n1	x	-5%	x	0%	-32%	x	65%[activator]	x
CN1CCCN(C(=O)Cc2c(Cl)cccc2Cl)c2nc3ccccc3nc21	u	-14%	17%	6%	-49%	-6.0%	-9%	-10%
O=C(c1cccc(C(F)(F)F)c1)C1CCCN(C(=O)CCCn2cncn2)C1 (stereo not drawn)	-1%	-19%	x	-1%	-1%	x	22%	-16%[46.1 µM]
Cc1ccc2[nH]c3c(=O)n(CC(=O)NCCCN(C)Cc4ccccc4)ncc3c2c1	x	-4%	x	4%	-13%	x	-8%	x
COc1ccc(-c2nn(C)c3sc(C(=O)NCCN(C)C)cc23)cc1OC	0%&-5%[46.1 µM]	1%	-12%	3%	1%	-6.2%	4%&-20%	u
Cc1cc(C)cc(N=c2c([N+](=O)[O-])nn(-c3cccc(Cl)c3)n2O)c1	0%	-7%	u	-5%	-3%	-7.9%	u	-15%
COc1ccccc1-n1c(N)c(C(=O)NCC2CCCO2)c2nc3ccccc3nc21 (stereo not drawn)	-12%	-17%	u	7%	12%	-17%	-28%	-8%
Cc1ccc(-n2c(SCc3cc(=O)n4ccsc4n3)nnc2-c2cccnc2)c(C)c1	0%	1%	-6%	-1%	2%	-2.9%	x	7%&2%
CC1CCc2c(sc3nc(CSc4nnnn4C)[nH]c(=O)c23)C1 (stereo not drawn)	17%	5%	x	-3%	-3%	x	16%	-11%[46.1 µM]
Cc1ccc(-c2[nH]c3ccccc3c2SCCNC(=O)c2ccc(S(=O)(=O)N3CCOCC3)cc2)cc1	u	8%	u	14%	-12%	-1.6%&-2.8%	-13%&-27%	u
Cc1cc(C)n(CC(=O)N/N=C/c2ccc3c(c2)OCO3)n1	5%	-3%	20%	18%	7%	-6.5%	28%	u
CCOc1ccc(CC2(CCc3ccncc3)C(=O)NC(=O)NC2=O)cc1	-3%	10%	x	0%	2%	x	-15%	7%[46.1 µM]
CNc1nc(OCC(F)(F)F)nc(N2CCOCC2)n1	16%	-1%	-3%	x	-1%	2.7%	-10%	u
Cc1cccc(N2C(=O)C3CCC(c4ccccc4)CC3C2=O)c1 (stereo not drawn)	1%	23%	-3%	-6%	-28%	-2.8%	u	-4%
COc1ccc(OC)c(C2CC(=O)C(C)C(c3cc(OC)ccc3OC)N2)c1 (stereo not drawn)	9%	8%	9%	-9%	5%	1.8%	-14%	4%
COc1ccccc1C(=O)NC(=O)COC(=O)c1nc2nc(C)cc(C)n2n1	11%	-2%	x	1%	x	x	-17%	u

Arranged by SMILES length (low to high): some entries from above.
SMILES	LASV entry inh	RE007 growth inh	Cruzain inh noDet	SARS PLP yeast	NS1 inh	Cruzain Triton	2A StopGo	MARV entry inh
COc1ccc(C(=O)CSc2nnnn2C)c(OC)c1	18%	3%	x	1%	1%	x	35%[activator]	1%[46.1 µM]
COC(=O)c1cc(/C=C/c2ccccc2)[nH]n1	x	-5%	x	0%	-32%	x	65%[activator]	x
O=C1CC(c2ccc(F)cc2)Cc2nc(N3CCOCC3)ncc21 (stereo not drawn)	u	-12%	-9%	7%	-20%	-4.8%	0%	-17%
Cc1cc(C)n(CC(=O)N/N=C/c2ccc3c(c2)OCO3)n1	5%	-3%	20%	18%	7%	-6.5%	28%	u
CC(=O)Nc1ccccc1Nc1cc(C#N)c(C#N)cc1[N+](=O)[O-]	-5%	-2%	-1%	3%	-5%	-1.7%	-20%	-1%
Cn1c2c(c(=O)n(C)c1=O)C(c1ccccc1OC(F)F)C1=C(CCCC1=O)N2 (stereo not drawn)	15%	4%	0%	1%	-10%	-2.3%	15%	-3%

The list continues:
SMILES	LASV entry inh	RE007 growth inh	Cruzain inh noDet	SARS PLP yeast	NS1 inh	Cruzain Triton	2A StopGo	MARV entry inh
CCOc1ccc(CCNC(=O)CN2C(=O)NC(CCSC)C2=O)cc1OCC (stereo not drawn)	-4%[46.1 µM]	9%	x	2%	x	x	-1%	-10%[46.1 µM]
COCCn1nc2cc(C(=O)NCc3cc(C(F)(F)F)cc(C(F)(F)F)c3)ccc2c1OC	x	-6%	u	13%	13%	-12%	-21%	0%
COc1ccc(C)cc1NC(=O)CCS(=O)(=O)c1ccc2c(c1)oc(=O)n2C	x	4%	x	-7%	0%	x	-7%	x
N#Cc1cc([N+](=O)[O-])ccc1NCCCn1ccnc1	27%	-3%	x	15%	11%	x	14%	13%[46.1 µM]
COc1ccc(N2CC(NC(=O)C3CC3)CC2=O)cc1 (stereo not drawn)	0%[46.1 µM]	x	7%	x	x	-0.1%	-11%	x
CC(=O)N1N=C(c2ccccc2)CC1c1cn(Cc2ccccc2)c2ccccc12 (stereo not drawn)	u	39%	u	-19%	16%	-3.4%	32µM*	u
CCc1nnc(NC(=O)c2ccc(S(=O)(=O)NCC(C)C)cc2)s1	25%	7%	u	4%	1%	-1.7%	x	-19%
C/C(=N\NC(=O)c1ccco1)c1ccc(-c2ccccc2)cc1	u	-19%	x	-4%	-23%	x	52%[activator]	u
Cc1cc(OCC(=O)N(C)Cc2ccccc2)ccc1Cl	28%	4%	x	0%	-5%	x	65%[activator]	24%
COCCNC(=O)c1cc(-c2ccccc2OC)on1	x	-8%	-9%	-11%	-29%	-7.5%	52%[activator]	x
COc1ccc(OC)c(NC(=O)CCn2cccn2)c1	u	x	-14%	x	x	0.7%	-17%	x
CCCCNC(=S)NNC(=O)c1c(Cl)c(C)nn1C	2%	-12%	-1%	-7%	-21%	1.9%	-19%	-1%
O=C(CC(c1ccccc1)C1CCCCC1=O)c1ccco1 (stereo not drawn)	10%	-1%	-10%	23%	-3%	-2.9%	-25%	1%
CCN(CC)c1ccc(/C=C(\C#N)C(=O)NCc2ccccc2)cc1	u	-1%	6%	-7%	-2%	-7.9%	0%	3%
Cc1cc(C)cc(NC(=O)C2CC(=O)N(c3ccccc3)C2)c1 (stereo not drawn)	-3%[46.1 µM]	x	1%	x	x	-2.5%	-25%	-13%[46.1 µM]
CC(=O)OCCNC(=O)Cn1cnc2c1c(=O)n(C)c(=O)n2C	4%	26%	-1%	0%	2%	3.5%	-3%	14%
CSc1ccc(CN(C)C(=O)CSCC(=O)Nc2ccc(C)cc2)cc1	-7%	4%	x	1%	x	x	-6%	1%
O=C(N/N=C/c1ccsc1)c1ccccn1	-26%[46.1 µM]	2%	x	-2%	0%	x	-11%	u
CCCCN(C)CCCNC(=O)Cn1ncc2c3ccccc3n(Cc3ccccc3F)c2c1=O	20%[46.1 µM]	x	-1%	x	x	-2.7%	0%	9%[46.1 µM]
O=C(COC(=O)c1cc(Br)ccc1O)c1ccc(F)cc1	-4%	1%	x	-20%	x	x	36%[activator]	17%
COc1ccc(C2/C(=C(/O)c3ccc(F)cc3)C(=O)C(=O)N2c2ccccn2)cc1OC (stereo not drawn)	-1%[46.1 µM]	-8%	x	1%	16%	x	-12%	3%[46.1 µM]
CC(C)(C)C1CCc2c(sc(N)c2C(N)=O)C1 (stereo not drawn)	-23%	-9%	25µM*	-2%	-2%	-15%	-22%	u
Cc1ccccc1C1CCCN(C(=O)c2cc(COc3c(F)cccc3F)on2)C1 (stereo not drawn)	x	-9%	x	1%	4%	x	-19%	x
CC1=C(C(=O)OC(C)C)C2(O)C(=O)c3ccccc3C2(O)N1 (stereo not drawn)	26%	17%	3%	0%	-4%	-1.2%	25%	-3%[46.1 µM]
CCC(=O)Nc1ccc(S(=O)(=O)Nc2cc(C)on2)cc1	18%	-7%	4%	1%	-2%	9.1%	-17%	1%
O=C(CSc1nc(-c2ccc(Cl)cc2)cs1)Nc1cccc([N+](=O)[O-])c1	x	1%	u	-22%	-18%	-6.8%	5%	x
Cc1ccc2oc(-c3ccccc3C(=O)O)cc(=O)c2c1	0%	-3%	-13%	-5%	-5%	-2.9%	u	u
CC(C)(O)CC[C@H](OC(=O)c1ccccc1)[C@](C)(O)[C@H]1CC[C@@]2(O)C3=CC(=O)[C@@H]4C[C@@H](O)[C@H](O)C[C@]4(C)C3CC[C@]12C (stereo partly drawn)	x	-7%	x	-2%	1%	x	-3%	x

Copied from the list.
Under RE007 growth inh, `CC(=O)OCCNC(=O)Cn1cnc2c1c(=O)n(C)c(=O)n2C` has the entry 26%
Under RE007 growth inh, `Cc1cc(OCC(=O)N(C)Cc2ccccc2)ccc1Cl` has the entry 4%
